CtBP-E1A blk: blocks the CtBP interaction with E1A; AlphaScreen GST-E1A/His-CtBP binding, 1536-well; active compounds read low; control for the full effect not named in the record; activity change, % (test concentration not listed); 340,000 compounds, 0.49% hits; AID 651724; in the data active means activity change below about -65%; inconclusive means about -30% to -65%; inactive means above about -30%; further: on the % scale 0 is the no-effect control and ±100 the full control effect
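Homogeneous bead-based format: GST-tagged E1A captured on glutathione donor beads, His-tagged CtBP on nickel acceptor beads; compounds precede bead addition by 2 h at 37 °C.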
Six1-Eya2 blk: blocks human Six1 binding to Eya2 | Q15475+O00167 | AlphaScreen GST-Six1/His-Eya2 binding, biochemical; active compounds read low; control for the full effect not named in the record | activity change, % (concentration not given with the values) | 360,000 compounds, 0.56% hits | AID 651725; in the data active = activity change below about -65%; inconclusive = about -30% to -65%; inactive = above about -30%; further: on the % scale 0 is the no-effect control and ±100 the full control effect
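Homogeneous AlphaScreen proximity assay pairing GST-Six1 with His-tagged Eya2 (added as 5X mix: 250 nM and 500 nM) in 50 mM Tris pH 8.0, 300 mM NaCl, 1 mM TCEP. Glutathione donor and nickel acceptor beads; 1 h, 37 °C, dark.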
TRPML1 agonist: agonists of human TRPML1 channel; TRPML1-expressing cells, Ca2+ dye fluorescence, FDSS; host cell line not named in the record; reference of the full effect not given here; AID 624414; activation, % (concentration not given with the values); 410,000 compounds, 0.12% hits; in the data active = activation above about 50%; inconclusive = about 30% to 50%; inactive = below about 30%; further: 0% is about no effect; the text of the record puts the active cut at 80%
Target sequence (Q9GZU1 whole entry, looked up): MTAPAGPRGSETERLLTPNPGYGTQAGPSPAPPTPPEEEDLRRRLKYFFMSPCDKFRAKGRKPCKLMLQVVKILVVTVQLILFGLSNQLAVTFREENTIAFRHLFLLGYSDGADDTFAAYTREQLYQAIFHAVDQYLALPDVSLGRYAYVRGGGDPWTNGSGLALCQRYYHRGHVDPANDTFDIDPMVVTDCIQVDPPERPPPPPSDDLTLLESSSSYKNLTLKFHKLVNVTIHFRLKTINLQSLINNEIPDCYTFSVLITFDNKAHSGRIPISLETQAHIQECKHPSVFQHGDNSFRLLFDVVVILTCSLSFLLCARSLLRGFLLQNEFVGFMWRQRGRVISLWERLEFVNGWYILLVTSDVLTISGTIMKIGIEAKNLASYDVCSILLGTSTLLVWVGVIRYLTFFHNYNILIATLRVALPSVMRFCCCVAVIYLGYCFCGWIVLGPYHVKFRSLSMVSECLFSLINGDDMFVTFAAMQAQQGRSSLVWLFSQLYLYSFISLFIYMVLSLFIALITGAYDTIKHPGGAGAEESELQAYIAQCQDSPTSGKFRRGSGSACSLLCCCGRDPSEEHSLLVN
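Agonist activity was taken from a 110 s kinetic Ca2+ dye read on the FDSS after pinning compounds onto TRPML1-DL cells. The cells were seeded at 1,500/well with Tet inducer, incubated about 16 h, then dye-loaded at room temperature.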
PINK1 modulator: PINK1 expression modulation; PINK1 immunofluorescence, high-content cytometry, 24 h; Potency, µM (doses to about 76.6 µM), for inactives: at the top dose activation (PINK1 increase), hits mostly activators; 410,000 compounds, 0.2% hits; active = well fitted activation curve with a large enough effect; inconclusive = small, poorly fitted or top-dose-only effect; inactive = flat fitted curve, though single readings scatter; cell line not stated here;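 further: potency means the concentration at half of the fitted maximal effect; % of control where 0% means no effect; nearly all actives have a fitted effect of over 65% in size; a mitochondrial uncoupler was the plate control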
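Stable cell line treated 24 h with compounds at 5 concentrations (CCCP controls), then fixed and immunostained for PINK1 plus nuclear and cell stains; PINK1 immunofluorescence quantified by laser-scanning microplate cytometry.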
D2 agonist: agonists of human D2 dopamine receptor (beta-arrestin); DiscoveRx PathHunter D2 beta-arrestin, luminescence, 90 min; 100% = 57 uM dopamine signal; activation, % (concentration not given with the values); 360,000 compounds, 0.084% hits; AID 624465; in the data active = activation above about 40%; inconclusive = about 15% to 40%; inactive = below about 15%; further: the text of the record calls up to 30% inactive
Target sequence (P14416 whole entry, looked up): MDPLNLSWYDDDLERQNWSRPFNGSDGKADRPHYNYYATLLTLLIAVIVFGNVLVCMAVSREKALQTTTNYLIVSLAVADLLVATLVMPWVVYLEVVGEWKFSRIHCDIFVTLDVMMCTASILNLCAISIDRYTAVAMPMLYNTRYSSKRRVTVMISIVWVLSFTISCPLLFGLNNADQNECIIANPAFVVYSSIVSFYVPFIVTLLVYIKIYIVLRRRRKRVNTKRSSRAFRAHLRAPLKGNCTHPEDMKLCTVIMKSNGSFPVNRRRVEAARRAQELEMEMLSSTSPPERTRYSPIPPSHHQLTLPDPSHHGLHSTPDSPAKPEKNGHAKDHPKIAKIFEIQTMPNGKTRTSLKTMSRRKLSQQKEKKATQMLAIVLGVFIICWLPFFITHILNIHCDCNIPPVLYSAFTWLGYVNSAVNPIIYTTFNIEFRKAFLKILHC
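DiscoveRx PathHunter D2 beta-arrestin cells (2,100/well) attached overnight, then compound-stimulated 90 min at 37 C in HBSS/10 mM HEPES/0.1% Tween-20 buffer; beta-galactosidase complementation read by luminescence after 1 h at ambient temperature. Dopamine 57 uM final (EC100) as control.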
D2 PAM: human D2 receptor positive allosteric modulation. P14416. DiscoveRx D2 beta-arrestin cells, luminescence, 90 min; 100% = 57 uM dopamine signal. potentiation, % (no concentration beside the values). 360,000 compounds, 0.23% hits. AID 624464; active = potentiation of 50% or more; inconclusive = 30% to 50%; inactive = 30% or less;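 further: compound concentration not given in the record; tested on top of an EC20 dose of dopamine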
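PathHunter beta-arrestin assay in DiscoveRx D2 cells. Compounds were added with an EC20 of dopamine (50 nM final) for 90 min at 37 deg C. Luminescence was read 1 h after detection reagent, with 57 uM dopamine as the EC100 control.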
* = called active by the depositor; ? = inconclusive; . = not tested or not shown; & = joins results of further samples; [ ] = another dose, or the depositor's remark. Rows are unselected; 1.3% or so of the library scored in one or more.

A first look:
compound	CtBP-E1A blk	Six1-Eya2 blk	TRPML1 agonist	PINK1 modulator	D2 agonist	D2 PAM
Cc1cccc(CSC2=CS(=O)(=O)c3ccccc3N2)c1	-0.7	-3.6	0.3	2.9%	-2.7	-14.2
N#CC1C(=O)NC(N2CCN(c3ccccc3)CC2)=NC12CCCCC2 (configuration not stated)	8.1	5.3	-0.5	-1.9%	-1.1	3.8
CNC(=O)OCc1nc(SSC(C)(C)C)n(C)c1COC(=O)NC	1.0	-4.7	0.6	-5.8%	2.7	5.8

This part in full, from the first entry:
compound	CtBP-E1A blk	Six1-Eya2 blk	TRPML1 agonist	PINK1 modulator	D2 agonist	D2 PAM
Cc1cccc(CSC2=CS(=O)(=O)c3ccccc3N2)c1	-0.7	-3.6	0.3	2.9%	-2.7	-14.2
N#CC1C(=O)NC(N2CCN(c3ccccc3)CC2)=NC12CCCCC2 (configuration not stated)	8.1	5.3	-0.5	-1.9%	-1.1	3.8
CNC(=O)OCc1nc(SSC(C)(C)C)n(C)c1COC(=O)NC	1.0	-4.7	0.6	-5.8%	2.7	5.8
CCC(=O)c1ccccc1OCCCn1cncn1	-2.5	9.1	0.7	-1.1%	-1.6	-10.7
Cc1ccnc(NC(=O)c2ccc(Br)s2)c1	.	4.5	0.4	4.0%	6.9	-5.7
CCC(C)(C)C1CCc2[nH]nc(C(=O)NCC3CC3)c2C1 (configuration not stated)	9.0	0.0	0.4	-1.2%	0.8	-6.0
CC(=O)Nc1cccc(NC(=O)c2cc3ccccc3o2)c1	9.8	-1.2	-1.0	-2.0%	-0.4	-14.9
CC1(C)CC(=O)C=C(C(=O)N2CCCC(C(=O)c3cccc(C(F)(F)F)c3)C2)O1 (configuration not stated)	-5.9	5.7	0.9	0.5%	4.1	13.8
COC(=O)c1ccc(COC(=O)C(CCS(C)(=O)=O)N2C(=O)c3ccccc3C2=O)cc1 (configuration not stated)	-2.8	3.0	0.0	1.5%	3.2	-0.4
c1ccc(-n2cccc2CNC2CCCCC2)cc1	-2.5	-22.2	-0.2	1.4%[38.3 µM]	-1.2	-11.2
CNC(=S)Nc1ccc([N+](=O)[O-])cc1	.	-5.0	0.5	2.2%	-8.3	-45.7
CC(=O)N(Cc1cc(=O)[nH]c2ccccc12)c1cccc(C)c1	-14.2	-16.1	0.0	-0.5%	4.2	-3.6
Cc1ccc(-c2nc3ccccc3c(C(=O)NCc3cccs3)c2C)cc1	-1.4	-0.4	-0.3	0.5%	-5.7	-1.4
O=C(C(=O)N1CCOCC1)c1cn(CC(=O)N2CCc3ccccc3C2)c2ccccc12	-22.9	1.2	0.3	-1.1%	2.4	1.6
Cc1cccc(N2CCN(C(=O)c3csc4ccccc34)CC2C)c1 (configuration not stated)	-16.7	-12.7	2.6	0.4%	0.3	-3.5
COc1ccc(NC(=O)N2CCC(C(=O)c3ccc(F)cc3)CC2)cc1	-0.5	6.3	-0.3	2.0%	0.6	-15.2
Cc1ccc(OCC(=O)Nc2sc3c(c2C#N)CCC3)cc1C	-8.4	8.9	2.3	13.9%	0.3	-15.9
CC(C)Nc1nc(-c2ccccc2)nc(-n2ccnc2)n1	9.6	-2.0	1.5	10.2%	-6.9	-9.1
COc1ccc(/C=C/C(=O)NC(=S)NNC(=O)c2cccnc2)cc1	1.3	?	1.7	4.5%	1.1	-18.8
Cn1c(=O)c2cn(Cc3ccc(Cl)cc3)cc2n(C)c1=O	-5.7	-4.8	1.2	-2.0%[38.3 µM]	1.2	5.9
COc1ccc(Cc2nc(C)cc(Cl)n2)cc1[N+](=O)[O-]	2.1	-8.2	-0.3	-0.6%	-2.6	-5.8
Brc1ccc2nc(-c3c[nH]c4ccccc34)cn2c1	-23.9	-16.6	-0.4	-0.8%	-2.8	-20.0
Cc1ccc(CNC(=O)CS(=O)(=O)c2cn(CC(=O)N3CCOCC3)c3ccccc23)cc1	2.8	10.6	0.1	-0.8%	2.2	-0.9
CN1C(=O)C2(c3ccccc31)c1c(oc3ccccc3c1=O)C(=O)N2CCCO (configuration not stated)	2.5	0.9	-0.1	1.3%	-5.1	-6.3
O=C(OCC(=O)N1CCCc2ccccc21)c1ccccc1OC(F)F	-5.2	-6.0	0.8	0.9%	-1.1	-0.6
COc1cccc(-n2c(CN3CCN(c4ccc(C)cc4)C(C)C3)nc3ccc([N+](=O)[O-])cc3c2=O)c1 (configuration not stated)	-7.1	-14.6	-0.1	3.3%	-4.9	-25.0
NC(=O)C1CCN(C(=O)CNC(=O)c2ccc(F)cc2)CC1	3.7	-3.9	0.0	1.3%	-0.6	-16.8
CCOc1ccc(N=C(NC#N)SCC(=O)NC2CC2)cc1	-6.1	-0.2	2.1	-3.5%[38.3 µM]	-5.5	-8.0
Cc1ccc(S(=O)(=O)NC(=O)NN2CCCCCC2)cc1	-9.2	-10.8	-0.9	2.0%	-4.6	-12.2
Cc1cccc2c(=O)c(-c3ccc(Cl)cc3)c(NC(=O)c3ccco3)oc12	-3.5	-6.5	-0.9	0.3%	-1.9	9.8
CSc1ccc(C(=O)C2CCCN(C(=O)CN3CCOC3=O)C2)cc1 (configuration not stated)	9.4	5.9	0.1	2.4%	-1.6	3.8
O=C(Nc1cccc(Cl)c1N1CCOCC1)c1ccc(Br)o1	1.8	-1.6	0.7	2.1%	-1.6	-12.3
O=C(CCCOc1ccccc1)N1CCN(S(=O)(=O)c2ccc(Cl)cc2)CC1	-1.6	5.5	1.1	-5.0%	-6.3	-17.6
CCOC(=O)C1=C(CC)Nc2ccccc2N/C1=N\S(=O)(=O)c1ccccc1F	.	0.9	-1.7	2.2%	0.0	2.2
COc1ccc(N2CCN(CCCn3cnc4c(OC)ncnc43)CC2)cc1	4.1	14.1	-0.1	-0.8%	-6.8	0.0
Cn1ncc(N2CCN(S(=O)(=O)c3ccc(Br)cc3)CC2)c(Cl)c1=O	-9.4	6.3	0.6	1.7%	1.9	-4.0
CCS(=O)(=O)n1nc(-c2ccccc2)nc1NCc1ccco1	1.5	1.9	0.4	2.4%[38.3 µM]	0.3	-0.3
Cc1ccc(-n2cc(CNC(C)c3cnn(C)c3C)c(-c3ccc(F)cc3)n2)cc1 (configuration not stated)	-1.7	-10.6	-0.2	0.3%	-3.3	-19.7
CCCCOc1cc(C(=O)NCCN(CC)CC)c2ccccc2n1	-3.6&0.0	7.7&5.2	-0.4&-0.9	2.8%&2.3%	-3.9&-3.4	-19.5&-5.5
CC(C)CNC(=O)CN1C(=O)NC(Cc2c[nH]c3ccccc23)C1=O (configuration not stated)	-0.1	0.2	4.2	-1.5%	-11.3	4.9
CCOc1c(Cl)cc(/C=C/C(=O)N(CC)CC(=O)Nc2ccc(NC(C)=O)cc2)cc1OC	-24.9	-1.4	0.5	6.0%	-2.0	-31.0
COc1cccc(NC(=O)CN2C(=O)C(=O)N(C3CCCC3)C2=O)c1	-8.1	8.8	0.1	-0.7%	-1.5	-20.4
COc1cccc(NC(=O)C2CCCO2)c1 (configuration not stated)	8.7	5.1	0.1	0.7%	5.1	-9.6
OCCNC(=S)Nc1ccc2c(c1)OCCO2	1.5	9.5	-0.2	-0.3%	-3.4	0.1
Cc1ccc(NC(=O)Cn2cc(C(F)(F)F)cc(Cl)c2=O)cc1Cl	18.0	6.9	0.5	-1.3%	-5.3	0.3
Cc1c(NS(C)(=O)=O)cccc1-c1nc2cccnc2s1	.	4.7	0.0	-1.1%	-4.9	-14.2
Cc1cccc(/C(N)=N/OC(=O)COc2ccc(Cl)c(C)c2)c1	6.6	12.4	2.7	7.4%	0.1	13.0
O=C(COn1nnc2ccc(C(F)(F)F)cc21)Nc1c(Cl)cccc1Cl	0.0	5.8	1.9	1.9%	-7.6	4.6
COc1ccc(C(=O)NC(C)c2nc3ccccc3[nH]2)cc1OC (configuration not stated)	22.0	2.1	2.2	-2.8%[38.3 µM]	-2.0	-20.9
O=C(O)c1ccc(N2C(=O)CCCC2=O)cc1	4.4	2.5	0.0	3.6%	-5.0	0.8
CCCC(=O)Nc1nc(-c2ccc3c(c2)OCCO3)cs1	-1.9	-9.4	-0.9	3.6%	0.5	-5.7
CCN(CC)S(=O)(=O)c1ccc(C(=O)NCC2CCCCC2)cc1	-7.0	2.6	-0.1	5.7%	0.0	-3.9
CCOC(=O)c1ccccc1NC(=O)CN1C(=O)CCS(=O)(=O)c2ccccc21	-2.0	2.4	1.0	2.8%	0.2	-6.1
CCN(C(=O)Cn1ccc(C(F)(F)F)n1)c1c(N)n(Cc2ccccc2)c(=O)[nH]c1=O	-4.8	10.3	0.2	-1.6%	-2.7	-10.3
COc1ccc(C2CC(c3ccc(Br)cc3)=NN2C(=O)c2cccnc2)cc1 (configuration not stated)	-0.7	-19.7	2.4	1.9%	-0.5	11.7
CCCC(=O)Nc1ccc(C(=O)/C=C/c2ccc(SC)cc2)cc1	-0.3	-3.3	0.6	3.4%	5.6	-2.6
COc1cccc(OC)c1C(=O)O/N=C(\N)c1ccncc1	0.0	15.1	0.2	-2.2%	3.2	19.6
O=C(NC(=S)Nc1ccc([N+](=O)[O-])cc1O)C1CCCCC1	-10.7	?	0.5	19.6%	-7.3	-14.2
c1ccc(CSc2ccc(-c3ccccn3)nn2)nc1	-94.2*	-92.9*	-0.6	-0.4%	-5.0	-3.3
O=C(Nc1ccc(C(=O)N2CCOCC2)cc1)Nc1ccc(Cl)cc1Cl	9.2	-0.7	-0.5	4.5%	-0.3	-1.6

(listing goes on)
compound	CtBP-E1A blk	Six1-Eya2 blk	TRPML1 agonist	PINK1 modulator	D2 agonist	D2 PAM
COCCn1c(SCC(=O)Nc2cc(Cl)ccc2OC)nc2c(c1=O)SC(C)C2 (configuration not stated)	1.8	-7.7	0.2	-0.1%	-5.6	-6.7
CCC(=O)Nc1ccc(Cl)c(-c2nc3ncccc3o2)c1	?	-67.8*	0.7	0.0%	4.7	-3.7
CC(=O)Nc1ccc2c(CSc3nncs3)cc(=O)oc2c1	-7.8	0.4	1.2	1.6%	1.7	-0.3
CCCCC(=O)N(C)c1c(CC)nc2c(OCC(N)=O)cccn12	7.1	0.5	-0.5	0.1%	0.1	-0.8
O=C(COC(=O)CNC(=O)c1ccccc1)NC1CCCCC1	2.8	5.3	1.6	-0.2%	-5.9	-22.3
O=C(OCC(=O)C12CC3CC(CC(C3)C1)C2)c1cnccn1	-0.2	25.5	-0.4	-0.2%	-0.4	-17.6
CC(C)(C)c1cc(CN2CCCC(O)C2)c(O)c(C(C)(C)C)c1 (configuration not stated)	-3.2	-3.9	3.8	21.1%[38.3 µM]	0.9	-18.8
NC(=O)c1cccc(-c2ccnc3c2CC(C(=O)NCc2ccc(F)c(F)c2)O3)c1 (configuration not stated)	-2.6	2.5	-0.5	8.0%	-4.3	-14.4

High-throughput results as filed in PubChem BioAssay.
